Sfp PPTase inh – Sfp phosphopantetheinyl transferase inhibition | Q9F4F7 | Biochemical Sfp PPTase activity, qHTS | Potency, µM, for inactives: max response, negative = inhibition, usual class: inhibitors | 310,000 tested, 3.5% active | AID 1490; active = well fitted inhibition curve with a large enough effect; inconclusive = small, poorly fitted or top-dose-only effect, or another doubt; inactive = no such curve, though single readings can be large or run the other way;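 also: the enzyme is Sfp with the accession as filed and its product quenches rhodamine fluorescence; potency is read from the fitted curve at half-maximal effect; 0% = enzyme reaction without inhibitor and -100% = no enzyme wells; top concentration of the series not given in the record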
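Sfp 15 nM + cpd, 15 min RT; start w/ rhodamine-CoA 5 uM, BHQ-2-YbbR 12.5 uM (final); 50 mM Hepes pH 7.6, 10 mM MgCl2, 0.01% NP-40, 0.01% BSA; read 525/598 nm at 0 and 30 min.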
Menin MLL FP FL – inhibitors of human menin-MLL interaction, wild-type MLL peptide; FP activity change, % at 61.4 µM; Fluorescence polarization, fluorescein-MLL peptide displacement from menin; 290,000 tested, under 10 active; inconclusive = falling polarisation curve, or a change in total fluorescence; inactive = total fluorescence flat and polarisation flat or rising; no compound was filed as active; the % refers to the polarisation; negative = inhibition;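 also: % of control where 0% means no effect; inhibitors lower the polarisation; unlabelled MLL peptide was the positive control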
gsp agonist – gsp mutant agonism. gsp mutant cells, cAMP HTRF, 30 min; control for the full effect not named in the record. Potency, µM (highest dose often 76.9 µM), for inactives: top-dose activation (cAMP increase), hits mostly activators. 340,000 tested, 0.13% active. AID 624287; active = well fitted activation curve with a large enough effect; inconclusive = small, poorly fitted or top-dose-only effect, or another doubt; inactive = no such curve, though single readings can be large or run the other way; cell line not stated here;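 also: phosphodiesterase inhibitor Ro 20-1724 added with compounds to block cAMP breakdown; potency is read from the fitted curve at half-maximal effect; nearly all actives have a fitted effect of over 60% in size; about a fifth of the inactives were tested at one dose only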
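Cells stably selected in G418 were plated at 2000/well, grown 16-24 hr, then given compounds in DMSO with the PDE inhibitor […] (300 uM solution added) for 30 min at 37C; cAMP was read by HTRF.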
D2 PAM – human D2 receptor positive allosteric modulation; DiscoveRx D2 beta-arrestin cells, luminescence, 90 min; 100% = 57 uM dopamine signal; potentiation, % (concentration not given with the values); 360,000 tested, 0.23% active; AID 624464; active = potentiation of 50% or more; inconclusive = 30% to 50%; inactive = 30% or less;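 also: compound concentration not given in the record; tested on top of an EC20 dose of dopamine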
Target sequence (P14416 whole entry, looked up): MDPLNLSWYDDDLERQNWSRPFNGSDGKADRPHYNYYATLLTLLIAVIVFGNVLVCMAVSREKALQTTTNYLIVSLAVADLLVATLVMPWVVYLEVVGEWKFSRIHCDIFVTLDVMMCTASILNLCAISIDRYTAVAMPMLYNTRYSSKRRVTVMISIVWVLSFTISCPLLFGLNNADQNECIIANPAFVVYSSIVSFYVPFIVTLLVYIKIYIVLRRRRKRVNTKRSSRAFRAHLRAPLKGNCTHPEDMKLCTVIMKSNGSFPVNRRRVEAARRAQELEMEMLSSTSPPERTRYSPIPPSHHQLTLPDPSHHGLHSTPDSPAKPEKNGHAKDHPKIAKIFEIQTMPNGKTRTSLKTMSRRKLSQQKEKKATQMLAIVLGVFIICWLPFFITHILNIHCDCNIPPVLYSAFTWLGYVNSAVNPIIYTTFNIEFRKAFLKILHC
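PathHunter D2 cells, attached overnight at 37 deg C, received compound in DMSO plus dopamine at EC20 (50 nM final) for 90 min at 37 deg C. Beta-arrestin recruitment was read as luminescence after 1 h with detection reagent at ambient temperature.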
TRPV1 PAM – human TRPV1 potentiation; AID 540277; TRPV1-expressing cells, Fluo-8 calcium influx, capsaicin EC20 potentiation; host cell line not named in the record; control for the full effect not named in the record; 320,000 tested, 0.02% active; Q8NER1; potentiation, % at 8.33 µM; active means potentiation above 80%; inconclusive means 30% to 80%; inactive means below 30%; also: 0% is about no effect
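TRPV1-expressing cells were cultured overnight at 35.5C and loaded with Fluo-8 calcium dye for 40 to 90 min at room temperature. After a 10 s baseline, compound was added and calcium influx was read kinetically for 3 min (ex 480/em 520 nm).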
gsp antagonist – antagonizes gsp, the McCune-Albright syndrome mutation. Potency, µM (series often up to 76.9 µM), without a hit: at the highest dose activity change, negative = inhibition, actives largely listed as inhibitors. gsp-mutant cells, cAMP HTRF, 30 min; control for the full effect not named in the record. 340,000 tested, 0.4% active; active = falling curve of any shape with a large fitted effect; inconclusive = falling curve, mostly with a smaller effect; inactive = flat or rising curve; cell line not stated here;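 also: intracellular cAMP measured with PDE inhibitor Ro 20-1724 present during compound exposure; potency is read from the fitted curve at half-maximal effect; % is scaled to controls: 0 for no effect and ±100 for the full control effect; nearly all actives have a fitted effect of over 65% in size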
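Cells, 2000/well, grown 16–24 h in DMEM 10% FBS with 0.5 mg/ml G418, then compounds plus […] (300 uM addition stock), 30 min at 37C. cAMP read by HTRF (cAMP-d2 and anti-cAMP antibody-K in lysis buffer) after 30 min RT.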
ClpP mod – qHTS Assay for Activators of ClpP; 340,000 tested, 1.9% active; purified B. subtilis ClpP, FRET peptide cleavage, 20 min; Potency, µM (titrated, usually from 57.5 µM), without a hit: at the highest dose activity change, negative = active; active = well fitted falling curve with a large enough effect; inconclusive = small, poorly fitted or top-dose-only effect; inactive = no such curve, though single readings can be large or run the other way; also: potency is read from the fitted curve at half-maximal effect; the source files actives as falling curves though it sought activators and does not explain the sign; nearly all actives have a fitted effect of over 65% in size; many hits overshoot -100%
Target sequence (P80244 whole entry, looked up): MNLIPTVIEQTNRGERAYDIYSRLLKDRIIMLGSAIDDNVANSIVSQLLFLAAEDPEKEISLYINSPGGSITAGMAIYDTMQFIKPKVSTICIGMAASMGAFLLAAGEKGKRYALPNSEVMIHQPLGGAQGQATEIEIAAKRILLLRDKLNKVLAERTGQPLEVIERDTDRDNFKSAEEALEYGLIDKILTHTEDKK
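Purified B. subtilis ClpP, 10 microg/mL final in Tris/HCl pH8 with KCl, BSA, glycerol and Tween-20, cleaved an Abz/nitrotyrosine-quenched decapeptide. Fluorescence (ex 320, em 430) was read at 0 and 20 min at room temperature. Delta was normalized to 5.8 microM ADEP and DMSO/no-enzyme controls.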
Starred values were filed as active, the others as inactive; ? = inconclusive; / = no result given; & = joins results of further samples; [ ] = dose if it differs, or a comment.

Sequence of screens: D2 PAM	Sfp PPTase inh	TRPV1 PAM	ClpP mod	gsp antagonist	Menin MLL FP FL	gsp agonist
> CN1C(=O)C(C)(C)c2cc(S(=O)(=O)N3CCN(c4ccccc4F)CC3)ccc21
→ -1	0%	-9	1.2%	13%	-0.5	-25%
> COCCNc1cc(C)nc2c(-c3ccccc3OC)c(C)nn12
→ -4	-23%	-22	-1.2%	-6%	3.5	-45%[inhibitor]
> Cc1ccc(C(=O)O)cc1NC(=O)Nc1cccc2ccccc12
→ -14	-2%	12	-12%	6%	/	-5%
> COc1cccc(CNC(=O)CCS(=O)(=O)c2ccc3c(c2)oc(=O)n3C)c1
→ -4	11%	9	0.3%&1.0%	6%	/	-31%[inhibitor]
> C=CCn1c(C(C)C)nc2ccccc21
→ 3	-4%	0	/	10%	-0.6	11%
> Cc1onc(-c2c(Cl)cccc2Cl)c1C(=O)NC(=S)Nc1sc2c(c1C(N)=O)CCC(C)C2 (stereo not given)
→ -20	-8%	6	-2.7%	-12%	-2.3	12%
> CCOCCCNC(=O)c1ccc2c(c1)ncn2-c1ccc(CC)cc1
→ 1	1%	-20	-9.5%	-7%	1.3	?
> CC(C)C[C@@H](COc1ccccc1)N1CCN(C)CCC1=O
→ -14	-12%	-3	2.4%&0.8%	5%	-0.1	-4%
> COc1ccc(NC(=S)c2ccncc2)cc1
→ -12	-1%	-9	5.2%	1%	2.2	8%
> Cc1csc(SCCn2c(N3CCOCC3)nc3c2c(=O)[nH]c(=O)n3C)n1
→ -2	10%	?	1.1%	-8%	2.0	-15%
> C/C=C\C=C/C(=O)Nc1cccc(C2=NOC3(C2)C[C@@H](C(N)=O)N(C(=O)c2ccccc2)C3)c1 (stereo not given in full)
→ /	11µM*	-9	/	/	6.0	/
> COc1cc(C(=O)NCC(=O)NCCSc2ccc(Br)cc2)cc(OC)c1OC
→ -15	/	6	4.0%	-11%	/	4%
> CCN(CC(=O)NCc1ccc(F)cc1)C(=O)/C=C/c1cccs1
→ -3	2%	-10	/	4%	1.5	-31%[15.4 µM]
> CN1c2ccccc2-c2ccccc2S1(=O)=O
→ -9	/	/	0.9%&1.6%	0%	/	/
> COCCn1c(C)cc(C(=O)COC(=O)Cc2n[nH]c(=O)c3ccccc23)c1C
→ -2	/	-16	/	4%	/	-15%[15.4 µM]
> COc1cccc(C2=NOC(C(=O)N3CCc4ccccc4C3)C2)c1 (stereo not given)
→ -5	5%	-15	-6.8%	3%	-2.5	8%
> CC(=O)NC12CC3CC(C1)CC(C(=O)Oc1ccc(N(C)S(=O)(=O)c4cc(C)ccc4C)cc1)(C3)C2
→ 2	/	9	/	-14%	/	8%[15.4 µM]
> COc1ccccc1C1C(C#N)=C(N)Oc2c1oc(CO)cc2=O (stereo not given)
→ -4	-6%	1	/	3%	-3.1	0%
> CC(CCc1ccccc1)NCC(O)c1cccc([N+](=O)[O-])c1 (stereo not given)
→ -1	-13%	-4	/	22%	5.1	1%[15.4 µM]
> NC(=O)COC(=O)c1ccccc1SCC(=O)NC1CCCCCC1
→ -1	-16%	4	/	7%	4.1	-13%
> COc1cccc(/C=N/Nc2ncnc3c2[nH]c2ccc(C)cc23)c1OC
→ -18	-30%	-5	-24%	13%	6.2	1%
> COc1cc2[nH]c(=O)n(CCC(=O)NCCC(C)C)c(=O)c2cc1OC
→ -8	-1%	0	20µM*	4%	4.5	-12%
> COc1ccc(-c2c[n+](CC(=O)c3cccs3)c3n2CCC3)cc1
→ -12	18%	-3	-1.8%	1%	1.3	-7%[15.4 µM]
> CC(=O)Nc1ccnn1C1CCN(C(=O)c2cccc(C)c2C)CC1
→ -8	6%	24	-0.4%	18%	/	-22%
> COC(=O)C1=C(C)N(CCCC(=O)O)C(=O)NC1c1ccc(-c2ccccc2)cc1 (stereo not given)
→ -9	17%	11	-0.8%	-8%	1.9	0%
> CCOC(=O)C1(Cc2cccc(OC)c2)CCN(Cc2ccc3c(c2)OCCO3)CC1
→ -13	19%	-20	/	5%	-0.5	19%
> Cc1ccc(NC(=S)Nc2ccc(S(=O)(=O)N3CCOCC3)cc2)cc1S(=O)(=O)N1CCOCC1
→ 1	-1%	-9	/	-4%	-1.5	9%
> Cc1ccc(C)c(N2CCN(CCN3CCCCC3)CC2)c1
→ -12	?	6	1.8%	3%	4.3	8%
> CCOC(=O)c1c(NC(=O)CSc2c[nH]c3ccccc23)sc2c1CCCC2
→ 0	8%	12	-9.6%	?	1.3	-82%[inhibitor]
> Cc1cc(C)c(CN2CCN(CCCn3ccc(NC(=O)OCc4ccccc4)nc3=O)CC2)c(C)c1
→ -21	/	/	-0.5%	8%	/	/
> CCOC(=O)[C@@H]1[C@H]2COc3cc(OC)ccc3[C@@H]2N2C(=O)N(c3cccc(C)c3)C(=O)[C@]12C
→ -5	/	/	2.2%	-1%	/	?
> CCOC(=O)N/N=C/c1cc(C)n(-c2ccccc2)c1C
→ -15	9%	-7	-3.4%	-3%	-0.2	1%
> O=S(=O)(N/N=C\c1ccccc1O)c1ccc(Cl)cc1
→ -10	19%	-9	-0.9%	-1%	-0.2	-39%[inhibitor]
> O=C(Nc1ccccc1C(=O)N1CCCC1)c1ccc(Cl)c([N+](=O)[O-])c1
→ 0	2%	-8	/	?	-0.1	-10%[15.4 µM]
> Cc1cc2c(=O)[nH]cnc2s1
→ -37	2%	6	-1.3%	13%	-1.0	-2%
> Cc1nc(CNS(=O)(=O)c2cccnc2)cs1
→ 10	-6%	8	-0.2%	3%	-0.5	-2%
> COc1cccc(C=Nc2cccnc2)c1O
→ /	4%	19	/	/	4.8	/
> CC(=O)C1=C(C)NC(SCC(=O)c2ccc(C)cc2)=C(C#N)C1c1ccco1 (stereo not given)
→ /	-46%	4	/	/	?	/
> Cc1nc(N2CCN(c3ccccn3)CC2)c2c(C)c(C(=O)Nc3ccccc3F)sc2n1
→ 5	-7%	20	/	0%	-2.2	-2%[15.4 µM]
> Cc1nc(NC(=S)Nc2ccccc2)sc1C
→ -8	-17%	-11	-0.4%	3%	-1.5	1%
> O=C(CCCn1cnc([N+](=O)[O-])n1)Nc1ccc(Cl)cc1Cl
→ 25	-5%	4	-5.6%	3%	-2.2	-45%[inhibitor]
> Cc1cc2c(cc1S(=O)(=O)Nc1ccc(OC(F)(F)F)cc1)OCC(=O)N2
→ 7	18%	-13	1.1%&1.9%	-4%	/	12%
> O=C(c1ccc(CNS(=O)(=O)c2cccc(Cl)c2)cc1)N1CCCC1
→ 3	6%	5	/	-9%	-1.7	?
> O=c1[nH]c(NCCO)nnc1Cc1ccccc1
→ -8	1%	-2	-2.2%	1%	-5.9	-15%
> CCOC(=O)c1cc2c(C)nn(-c3ccccc3)c2s1
→ -3	-11%	-15	-12%	9%	-0.6	-3%
> O=C(O)C(Cc1ccccc1)NS(=O)(=O)c1ccc(Cl)cc1 (stereo not given)
→ 1	20%	10	2.0%	15%	-8.5	0%
> N#CC(c1ccc(Cl)cc1)c1ccc2c(C(F)(F)F)cc(C(F)(F)F)nc2n1 (stereo not given)
→ -8	11%	0	-1.9%	?	3.5	-18%
> CCN(C(=O)CSc1nc2nc(C)cc(C)n2n1)c1ccccc1
→ -17	11%	-17	-1.5%	7%	0.6	-18%
> Nc1cc(=O)[nH]c(SCC(=O)NC2CCCCCCC2)n1
→ -7	/	/	/	4%	/	18%
> Cc1ccc(S(=O)(=O)N2CCN=C2SCc2cccnc2)cc1
→ -4	6%	?	1.9%	6%	-1.6	-34%[inhibitor]

Next structures follow:
Sequence of screens: D2 PAM	Sfp PPTase inh	TRPV1 PAM	ClpP mod	gsp antagonist	Menin MLL FP FL	gsp agonist
> COc1ccc(O)c(C=Nc2cc(NC(C)=O)c(Cl)cc2Cl)c1
→ 10	-9%	-1	1.7%	12%	13	3%
> CCC(=O)Nc1ccc(NC(=S)NC(=O)Cc2ccccc2)cc1
→ -8	-3%	-1	0.6%	3%	-1.0	0%
> O=C(CSCc1ccccc1)Nc1cc([N+](=O)[O-])ccc1F
→ -5	-6%	-3	2.5%	-1%	2.0	?
> CCCOc1ccc(S(=O)(=O)N2CCCC2)cc1[N+](=O)[O-]
→ -6	-4%	-1	-1.9%	6%	-2.2	?
> COc1c(Cl)cc(C(=O)Nc2ccccc2C(=O)O)cc1Cl
→ 8	-3%	-5	-1.2%	?	3.5	7%
> O=C(O)c1ccc(NC(=O)c2cccc(S(=O)(=O)Nc3ccc(C(=O)O)cc3)c2)cc1
→ -5	21%	-10	0.9%	-4%	-4.3	-11%
> COc1ccc(NC(=O)COC(=O)CCC(=O)c2cccs2)cc1OC
→ -1	/	-7	2.0%	11%	/	21%
> Cc1ccc(C)c(C(=O)COC(=O)c2ccccc2N2C(=O)C3C4CCC(C4)C3C2=O)c1 (stereo not given)
→ 2	-4%	-8	-0.2%	?	-3.4	1%
> O=C1CCCc2ccccc2N1Cc1ccc(Cl)cc1
→ -20	7%	3	1.9%	-8%	1.7	-2%
> CN(Cc1cc(Cl)cc(Cl)c1O)Cc1c(O)ccc2ccccc12
→ -1	/	/	/	?	/	6%
> CCC(C)NC(=O)Cn1nc(Cc2ccncc2)c2ccccc2c1=O (stereo not given)
→ -1	9%	?	/	3%	-7.4	-1%

4 of the compounds above, with tabs.
SMILES	D2 PAM	Sfp PPTase inh	TRPV1 PAM	ClpP mod	gsp antagonist	Menin MLL FP FL	gsp agonist
O=C1CCCc2ccccc2N1Cc1ccc(Cl)cc1	-20	7%	3	1.9%	-8%	1.7	-2%
COc1ccc(O)c(C=Nc2cc(NC(C)=O)c(Cl)cc2Cl)c1	10	-9%	-1	1.7%	12%	13	3%
Cc1ccc(C)c(C(=O)COC(=O)c2ccccc2N2C(=O)C3C4CCC(C4)C3C2=O)c1 (stereo not given)	2	-4%	-8	-0.2%	?	-3.4	1%
O=C(CSCc1ccccc1)Nc1cc([N+](=O)[O-])ccc1F	-5	-6%	-3	2.5%	-1%	2.0	?

Bioassay records: PubChem, National Center for Advancing Translational Sciences (NCATS)
